NPYLR7 agonist: mosquito NPYLR7 agonism; HEK293T NPYLR7/Galpha15, GCaMP6s calcium fluorescence; activation, % at 10 µM; 270,000 tested, 0.15% active; AID 1259423; in the data active = activation above about 40%;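 note: 0% = vehicle and 100% = reference agonist at the receptor; some compounds past the cut are filed as inactive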
NPYLR7 agonist max-min: further read-out of NPYLR7 agonist, marked with its call; activation, %; measured here: Max-Min RFU normalised activation; some inactives read as strong as hits;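 span of the calcium signal over five minutes; 0% = vehicle and 100% = native peptide agonist; compound fluorescence can raise it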
Numbers without * were called inactive; & = joins results of further samples. The list is partial, so the mix of outcomes need not match the whole.

1. CCCC1CCC(C2=N/C(=C\c3ccco3)C(=O)O2)CC1 (stereo not drawn)
2. CN(C1CCc2ccccc21)S(=O)(=O)c1cccc(C#N)c1 (stereo not drawn)
3. O=C(Nc1ccc2c3c(cccc13)CC2)C1=COCCO1
4. COc1ccc(NC(=O)Cn2cc(OC)c(=O)cc2CSc2nnnn2C)cc1
5. Clc1ccc2c(Nc3ccc4c(c3)OCO4)ccnc2c1
6. NC(=O)c1csc(-c2cccc(C(=O)O)c2)n1

assay / compound,1,2,3,4,5,6
NPYLR7 agonist,0.2,12.8,3.5,3.1,8.9,2.5
NPYLR7 agonist max-min,-4.4,7.2,-1.4,-6.5,3.6,2.0

7. NC(=S)Nc1ccc(OC(F)F)cc1
8. NS(=O)(=O)c1ccc2c(c1)oc(=O)n2CC(=O)NC1CCCCCCC1
9. CC(=O)NCC1=CCN(CCNC(=O)c2ccccc2)CC1
10. O=C(O)c1ccc(-c2c3nc(c(-c4ccc(C(=O)O)cc4)c4ccc([n-]4)c(-c4ccc(C(=O)O)cc4)c4nc(c(-c5ccc(C(=O)O)cc5)c5ccc2[n-]5)C=C4)C=C3)cc1.[Mn+3]
11. CCNc1ccc(S(=O)(=O)C(F)F)cc1N
12. COc1ccc(CN(C(=O)c2ccccc2Br)C(C)C)cc1OS(C)(=O)=O

assay / compound,7,8,9,10,11,12
NPYLR7 agonist,5.6,3.8,26.1,-6.8,15.5,-2.4
NPYLR7 agonist max-min,5.0,2.3,11.2,-12.2,10.8,-1.1

13. C=CCNCC(=O)N1CCc2sccc2C1c1ccccc1 (stereo not drawn)
14. CC1ON=C(c2ccc(F)cc2)N(Cc2ccc(S(C)(=O)=O)cc2)C1=O (stereo not drawn)
15. O=C(CCC1CCCN(C(=O)CSc2ccccc2)C1)Nc1ccc(C(F)(F)F)cc1 (stereo not drawn)
16. Cc1cc(=O)[nH]c(N(Cc2ccccc2)C(=O)Nc2ccccc2)n1
17. COc1ccc(-c2cnc3ncnn3c2N2CCCN(C(=O)c3ccc(Cl)cc3Cl)CC2)cc1
18. COc1cc(C=C2SC(=S)N(CCCCCOC(=O)O)C2=O)cc(OC)c1OC

assay / compound,13,14,15,16,17,18
NPYLR7 agonist,2.4,7.0,3.2,-22.0,4.1,0.1
NPYLR7 agonist max-min,12.4,2.7,-3.1,-22.0,-2.5,-5.2

Filtered by structure, those above with an aryl thioether with sulfur outside any ring
4. COc1ccc(NC(=O)Cn2cc(OC)c(=O)cc2CSc2nnnn2C)cc1
15. O=C(CCC1CCCN(C(=O)CSc2ccccc2)C1)Nc1ccc(C(F)(F)F)cc1 (stereo not drawn)

assay / compound,4,15
NPYLR7 agonist,3.1,3.2
NPYLR7 agonist max-min,-6.5,-3.1

Further records
19. CC(C)NCC(=O)N(Cc1ccccc1)Cc1cccs1
20. CCc1ccc(CNC(=O)CSc2nnc(N)n2C)s1
21. Cc1cc(Oc2ccc(Br)cc2)nc(C(C)C)n1
22. COc1ccc(CCN2CC(C(=O)N(C)CCN3CCOCC3)CCC2=O)cc1 (stereo not drawn)
23. O=c1cc(CNC(c2ccc3c(c2)CCC3)c2cccs2)nc2sccn12 (stereo not drawn)
24. Cc1ccc2nc(C)c(NC(=O)CC(c3ccccc3)c3ccccc3)c(=O)n2c1

assay / compound,19,20,21,22,23,24
NPYLR7 agonist,-4.7,3.4,7.5,2.5,3.5,3.5
NPYLR7 agonist max-min,-15.1,2.4,1.6,-0.8,2.1,1.1

25. CC1(C)CC(=O)c2cn3nc(-c4ccncc4)nc3nc2C1
26. Cc1cccc(OCCn2nc(C)c(C#N)c2N)c1
27. O=C(Nc1nnc(-c2ccc(Cl)cc2)s1)C1CCCN1S(=O)(=O)c1ccc(Br)cc1 (stereo not drawn)
28. CSc1ccccc1NC(=O)C1(C)CCN1C(=O)c1ccccc1CCc1ccccc1 (stereo not drawn)
29. CCOc1ccsc1C(=O)N1CCC2(CCNC2=O)CC1
30. C[C@H](c1ccc(F)cc1)n1c(CCN)n[nH]c1=O

assay / compound,25,26,27,28,29,30
NPYLR7 agonist,-10.4,7.1,-4.5,6.9,6.4,-0.1
NPYLR7 agonist max-min,-0.3,4.5,-5.1,6.2,4.6,-4.2

31. O=C(c1cc(Cn2ccc3ccccc32)[nH]n1)N1CC=CC1
32. COCCN(Cc1csc(COc2ccccc2C(C)C)n1)C(=O)C1CCCC1
33. CCOC(=O)C1=C(C)N(C)C(=O)NC1c1ccc(-c2cccs2)cc1F (stereo not drawn)
34. CCc1ccc2c(c1)NC(=O)C2(C)Cc1ccccc1C (stereo not drawn)
35. O=S(=O)(Nc1ccc(Cl)c(S(=O)(=O)N2CCCCC2)c1)c1cc(F)cc(F)c1
36. CC(Cn1ccnc1)NCC1(c2cccc(F)c2)CCOCC1 (stereo not drawn)

assay / compound,31,32,33,34,35,36
NPYLR7 agonist,9.7,1.7,2.1,-0.9,2.9,1.8
NPYLR7 agonist max-min,-1.3,14.3,0.4,-1.0,11.6,0.9

Four of these compounds, reformatted:
(33) CCOC(=O)C1=C(C)N(C)C(=O)NC1c1ccc(-c2cccs2)cc1F (stereo not drawn)
- NPYLR7 agonist: 2.1
- NPYLR7 agonist max-min: 0.4
(34) CCc1ccc2c(c1)NC(=O)C2(C)Cc1ccccc1C (stereo not drawn)
- NPYLR7 agonist: -0.9
- NPYLR7 agonist max-min: -1.0
(35) O=S(=O)(Nc1ccc(Cl)c(S(=O)(=O)N2CCCCC2)c1)c1cc(F)cc(F)c1
- NPYLR7 agonist: 2.9
- NPYLR7 agonist max-min: 11.6
(36) CC(Cn1ccnc1)NCC1(c2cccc(F)c2)CCOCC1 (stereo not drawn)
- NPYLR7 agonist: 1.8
- NPYLR7 agonist max-min: 0.9

The listing continues.
37. CNC(=O)CCN1CCN(CC(F)(F)F)c2ccccc21
38. CCCCN(Cc1cccn1Cc1ccc(Br)cc1)C(=O)CN(CCOC)C(=O)c1cccc(F)c1
39. COCc1ncc(CN2CCCN(Cc3ccc(F)cc3)C(C(C)C)C2)cn1 (stereo not drawn)
40. COc1ccccc1C(=O)N1CCc2ccccc2C1c1ccc(Cl)cc1 (stereo not drawn)
41. CC1CCN(c2nn3c(=O)ccnc3s2)C2CCCCC12 (stereo not drawn)
42. Cc1ccccc1C(=O)N(CC(=O)N(CCc1c[nH]c2ccccc12)Cc1ccc(F)cc1)C(C)C

assay / compound,37,38,39,40,41,42
NPYLR7 agonist,7.7,5.0,-3.2,17.0,-5.4,-4.7
NPYLR7 agonist max-min,4.3,8.3,-12.2,2.1,-4.5,4.0

43. O=C(NNS(=O)(=O)c1cc(Cl)cc(Cl)c1)c1ccc2c(c1)OCCO2
44. O=C(Nc1ccccc1)N1CCCC(OCc2ccccc2F)C1 (stereo not drawn)
45. Cc1nc(C(=O)NCC2(c3ccc(F)cc3)CCOC2)cs1 (stereo not drawn)
46. COc1ccc(-n2c(-c3ccccc3C)n[nH]c2=S)cc1
47. Cc1nc(Cl)c([N+](=O)[O-])c(N2CCCC2)n1
48. O=C(CCc1nnc(-c2cccc(F)c2)[nH]c1=O)NCCc1ccccc1

assay / compound,43,44,45,46,47,48
NPYLR7 agonist,7.1,-8.8,9.6,-5.2,5.0,5.0
NPYLR7 agonist max-min,10.5,-8.1,7.4,8.7,-2.0,1.9

49. COCc1nc(C(=O)NS(=O)(=O)c2ccc(OC)c(C)c2)cs1
50. O=C(NCc1cn2cc(Cl)ccc2n1)C1CC2CCCC(C1)C2=O (stereo not drawn)
51. c1csc(-c2noc(CSc3nnnn3C3CC3)n2)c1
52. Cc1ncc([N+](=O)[O-])n1-c1nc(N2CCOCC2)ncc1F
53. CC(C)(C)c1cc(C(C)(C)C)c(OCCBr)cc1OCCO
54. CC1C(=O)N(c2cccc(C(F)(F)F)c2)CCN1C(=O)C1CC1 (stereo not drawn)

assay / compound,49,50,51,52,53,54
NPYLR7 agonist,5.3,13.3,8.9,6.8,8.1,-1.6
NPYLR7 agonist max-min,1.2,5.6,5.7,5.3,13.1,4.3

55. Cc1ccc(NCCNC(=O)c2sc(-c3ccccc3)nc2C)nn1
56. CN(Cc1ccnc2ccccc12)C(=O)[C@@H]1CCCCN1
57. C=CCN(Cc1ccc(Cl)s1)C(=O)CC(O)(c1ccccc1)C1CC1 (stereo not drawn)
58. CCC1CCCCN1C(=O)c1cc2nc(-c3ccccc3)cc(C(F)(F)F)n2n1 (stereo not drawn)
59. CCOC(=O)c1cc(-c2ccc(CC)cc2)n(-c2ccc(C(=O)NCCCN(C)C)cc2)n1
60. COc1ccc(S(=O)(=O)NCCCN2CCOCC2)cc1N1CCN(C(=O)C=C(C)C)CC1

assay / compound,55,56,57,58,59,60
NPYLR7 agonist,-15.0,6.9,4.6,3.1,4.5,-1.3
NPYLR7 agonist max-min,-22.5,-1.7,1.4,3.4,1.9,5.5

61. COc1nc(-c2ccc(Cl)c(Cl)c2)n(-c2ccc(NC(=O)C(Cl)Cl)cc2)n1
62. O=C(CSc1nnc(CCn2ccc(=O)[nH]c2=O)o1)NCc1ccc(F)cc1
63. COC(=O)c1ccc(NCC(Nc2ccccc2)C(C)C)nn1 (stereo not drawn)
64. O=C1NC(=O)C(Nc2ccc(Br)cc2)S1 (stereo not drawn)
65. CCCNC(=O)CCCN(C)S(=O)(=O)c1ccc(F)cc1
66. Cc1ccc(S(=O)(=O)N(Cc2c(-c3cccc(C)c3)noc2N2CCOCC2)CC2CCCO2)cc1 (stereo not drawn)

assay / compound,61,62,63,64,65,66
NPYLR7 agonist,6.4,-1.2,-0.9,5.7,5.8,6.4
NPYLR7 agonist max-min,11.3,-2.3,3.8,4.2,3.3,11.8

67. CC(C)OCCC(=O)NCC(C)Oc1ccccc1 (stereo not drawn)
68. Nc1cc(SC(F)(F)C(F)(F)C(F)(F)F)cc2c1OCC(=O)N2
69. Cc1cccnc1N1CCN(Cc2cnc(CC3CCCC3)[nH]2)CC1
70. CN(C)[C@@H]1C[C@@H](CO)N(C(=O)c2cc(-c3cccnc3)nc3ccccc23)C1
71. CC1=NC2=C(C(=O)CC(c3ccccc3)C2)C(c2ccccc2)C1C(=O)OC1CCCCC1 (stereo not drawn)
72. COc1ccc(CNC(=O)c2ccc(-n3nc(-c4cccc(C)c4)cc3N)cc2)cc1

assay / compound,67,68,69,70,71,72
NPYLR7 agonist,3.8,-18.0,-4.0,6.7,0.3,-7.1
NPYLR7 agonist max-min,-0.3,-24.7,-11.8,3.4,2.3,-11.0

73. COCc1cc(C)nc(OCC(=O)N/N=C\c2cc(Cl)cc(Cl)c2O)c1C#N
74. COC(=O)C1=C(C)N(C)C(=O)NC1c1ccccc1Br (stereo not drawn)
75. O=C(c1ccccc1)C1C2CC3OC(=O)C1C3C2 (stereo not drawn)
76. CCOc1cccc(NC(=O)C2CC(=O)N(C)C(=Nc3cccc(F)c3)S2)c1 (stereo not drawn)
77. COc1ccc(NC(=Nc2nc(C)c(Cc3ccccc3)c(=O)[nH]2)NC(=O)c2ccccc2)cc1
78. Cn1cccc1C(=O)NCC(=O)N1CCC(Cc2ccccc2)CC1

assay / compound,73,74,75,76,77,78
NPYLR7 agonist,15.3,1.2,-7.7,-0.8,-9.9,0.8
NPYLR7 agonist max-min,15.0,2.5,-16.3,-1.3,-14.9,0.3

79. Cc1ccc(S(=O)(=O)C2(C(=O)NCc3nccs3)CCC2)cc1
80. CCOc1ccccc1CN1CCNC(=O)C1CC(=O)N1CCc2sccc2C1 (stereo not drawn)
81. COc1ccc(OC(F)(F)F)cc1CC1(C)C(=O)Nc2ccc(-c3cccc(N(C)C)c3)cc21 (stereo not drawn)
82. CC1(C)CC(=O)C=C(NCCCN2CCCC2=O)C1
83. O=C1CN(C(=O)COc2ccccc2)CC(O)CN1CCCc1ccccc1 (stereo not drawn)
84. O=C(/C=C/c1cccs1)N(Cc1cccnc1)c1nc2ccc(F)cc2s1

assay / compound,79,80,81,82,83,84
NPYLR7 agonist,-1.6,6.3,2.9,3.6,26.7,-24.5
NPYLR7 agonist max-min,26.6,7.0,0.7,0.6,25.7,-4.1

85. C/C=C(\C)C(=O)N1CCC(c2nc(-c3ccc(OC)cc3)no2)CC1
86. O=C(NCc1cn2c(n1)SCC2)c1cn(Cc2c(F)cccc2F)nn1
87. CC(=O)N1CCN(C(=O)c2cc(-c3ccc(F)cc3)nc3cc(-c4ccccc4)nn23)CC1
88. COCCNC(=O)c1nn(-c2ccc(Cl)cc2)c(=O)n(Cc2cccc(OC)c2)c1=O
89. Cn1cc(C(=O)NCc2ccc(Cl)cc2)c2[nH]c(=O)n(-c3ccc(F)cc3)c(=O)c21
90. CN(C)c1ccc(-c2nc3ccc(Br)cn3c2NC2CCCCC2)cc1

assay / compound,85,86,87,88,89,90
NPYLR7 agonist,-3.7,1.2,-13.2,-9.2,5.3,-2.2&31.7
NPYLR7 agonist max-min,-6.8,-2.1,-6.4,-7.6,1.5,6.1&45.3

91. O=C(OCc1cc2c(cc1Br)OCO2)C1CC2CCCC(C1)C2=O (stereo not drawn)
92. CCCSc1nsc(SCCC)c1C#N
93. CCC(CO)NCc1ccc(-c2ccccc2)cc1 (stereo not drawn)
94. Cc1nc(-c2ccsc2)sc1C(=O)N1CCC(C(=O)NC2CCCCC2)CC1

assay / compound,91,92,93,94
NPYLR7 agonist,11.6,10.0,-16.4,2.5
NPYLR7 agonist max-min,11.3,5.2,-23.2,53.8

Source: PubChem BioAssay (Fisher Drug Discovery Resource Center)
